HCMV NEC inh = cytomegalovirus nuclear egress complex inhibition; HTRF UL50-UL53 interaction, normalized percent inhibition; inhibition, % (test concentration not listed); hit rate 0.15% among 190,000; AID 1918969;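 active = both replicates at 50% or more, plus weaker picks with an unusually low signal ratio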;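 note: stock transfer was 100 nL into about 20 µL; 0% = negative control wells and 100% = wells with untagged competitor protein; inactives centre near -12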
Sa growth inh = inhibitors of Staphylococcus aureus growth at 42 °C. relative growth, % (no concentration beside the values). AID 720641. hit rate 0.53% among 170,000. S. aureus RN4220 growth, OD600, 20 h; hits give low values;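 active = growth at 42 °C up to 50% and 20 or more points under that at 30 °C, or under 10% at both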;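 note: 300 nL library stock went into each well; scaled to the means of positive and negative controls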
GIV-Gai inh = inhibitors of GIV GBA-motif binding to rat Galpha-i3 | P08753 | Galpha-i3/FITC-GIV peptide fluorescence polarization, 90 min; hits give low values; scaled: aluminum fluoride 0%, vehicle 100% | percent of control (FP), % (no concentration beside the values) | hit rate 0.42% among 210,000 | AID 1224905;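 active = replicate mean at 85% of control or lower, very high polarization wells dropped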;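 note: wells of about 15 µL received 100 nL stock; the first replicate is given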
Target sequence (P08753 whole entry, looked up): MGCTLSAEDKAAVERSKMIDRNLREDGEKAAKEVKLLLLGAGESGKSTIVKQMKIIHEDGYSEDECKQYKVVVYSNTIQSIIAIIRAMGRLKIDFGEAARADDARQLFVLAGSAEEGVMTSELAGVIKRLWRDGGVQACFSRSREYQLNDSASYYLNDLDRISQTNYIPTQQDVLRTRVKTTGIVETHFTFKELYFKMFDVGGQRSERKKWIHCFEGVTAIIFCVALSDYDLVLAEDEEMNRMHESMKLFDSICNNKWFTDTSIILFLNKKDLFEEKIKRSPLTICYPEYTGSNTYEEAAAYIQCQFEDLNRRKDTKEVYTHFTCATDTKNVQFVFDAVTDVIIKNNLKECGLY
Sa growth inh second temp = recorded beside Sa growth inh, whose call it bears; relative growth, %; measured here: growth at 30 °C;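 optical density after 20 h as mean of two plates; 100% = untreated growth and lower means inhibition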
Numbers without * were called inactive; · = not tested or not shown; & = joins results of further samples.

SMILES	HCMV NEC inh	Sa growth inh	Sa growth inh second temp	GIV-Gai inh
O=C1c2ccccc2NC(c2ccc3cccnc3c2)N1c1cccc(C(F)(F)F)c1 (stereo unspecified)	-1	101	70	·
CNC(=O)Cn1cc(S(=O)(=O)Cc2ccccc2F)c2ccccc21	·	86	89	100
CCC(=O)N1CCCC1c1nc2ccccc2n1CCOc1ccc(OC)cc1 (stereo unspecified)	-23	·	·	110
COc1ccc(-n2c(-c3ccc(Br)cc3)nc3cc4c(cc32)OCO4)cc1	·	104	91	157
O=C(NC1=C(C(=O)c2ccccc2)N(Cc2ccccc2)S(=O)(=O)c2ccccc21)c1ccc(F)cc1	-9	·	·	107
COCCOC(=O)C1=C(C)NC2=C(C(=O)CC(c3ccc(OC)c(OC)c3)C2)C1c1ccc(F)cc1 (stereo unspecified)	-15	·	·	102
O=C1c2cnccc2CN1Cc1ccccc1	·	88	98	102
CC(=O)Nc1ccc(C)cc1-c1nc2ccccc2n(C(C)C(=O)Nc2c(C)cc(C)cc2C)c1=O (stereo unspecified)	-17	·	·	102
Cc1cc(C)nc(SC(C)CN(C)C)n1 (stereo unspecified)	0	97	100	·
Cc1ccc(-c2nc3scc(CCNS(=O)(=O)c4c(C)noc4C)n3n2)cc1	·	121	108	100

Single records (already shown).
`O=C(NC1=C(C(=O)c2ccccc2)N(Cc2ccccc2)S(=O)(=O)c2ccccc21)c1ccc(F)cc1` in the list: HCMV NEC inh = -9; Sa growth inh = ·; Sa growth inh second temp = ·; GIV-Gai inh = 107
`Cc1ccc(-c2nc3scc(CCNS(=O)(=O)c4c(C)noc4C)n3n2)cc1` in the list: HCMV NEC inh = ·; Sa growth inh = 121; Sa growth inh second temp = 108; GIV-Gai inh = 100
`CNC(=O)Cn1cc(S(=O)(=O)Cc2ccccc2F)c2ccccc21` in the list: HCMV NEC inh = ·; Sa growth inh = 86; Sa growth inh second temp = 89; GIV-Gai inh = 100

More structures:
SMILES	HCMV NEC inh	Sa growth inh	Sa growth inh second temp	GIV-Gai inh
O=C(NCCC1=CCCCC1)c1ccc2c(c1)[nH]c(=O)n2C1CCCC1	17	83	70	106
O=C(O)CCSc1ccccc1C(=O)O	-16	90	83	98
COc1ccc(CNS(=O)(=O)c2ccc3c(c2)N(C)CCO3)cc1	-5	92	93	106
CC(=O)Nc1sc2c(c1SC#N)CCCC2	·	88	76	100
CCN(C(=S)NC)c1cccc2ccccc12	-18	101	93	·
N#CCSc1nc(-c2ccccc2)c2cc(Cl)ccc2n1	3	101	105	104
O=C(CCc1nnc2ccc(N3CCCC3)nn12)NCc1ccccn1	-32	105	95	103
CC1=CCC(COC(=O)CN2CCCCC2)CC1 (stereo unspecified)	-7	110	104	106
Cc1cc(C)cc(NC(=O)c2cc(S(=O)(=O)N3CCOCC3)cn2C)c1	-16	100	88	106
N=CC1=C(O)c2ccccc2C1=O	-71	82	80	102
CC(=O)N(C(C)=O)c1nccc(-c2c(-c3ccccc3)noc2C)n1	-13	93	103	102
COc1cc(C=Nc2ccc(N=Cc3ccc(OC(C)=O)c(OC)c3)cc2)ccc1OC(C)=O	-8	99	90	·
c1ccc(-c2nnc3sc(-c4c[nH]c5ccccc45)nn23)nc1	-9	·	·	107
O=C(NCCCc1ccccc1)NC1CC(=O)N(c2ccc(F)cc2)C1 (stereo unspecified)	-8	105	94	103
C=CCC1c2cccc(C(=O)O)c2C(=O)N1c1ccc(F)cc1 (stereo unspecified)	·	157	89	106
CCCN(CCC)CCCNC(=O)C1CCN(c2nc3cccnc3s2)CC1	-18	·	·	103
CC(C)NC(=O)N1CCCC(c2cccc(C(=O)NCCN3CCOCC3)c2)C1 (stereo unspecified)	-4	·	·	110
O=C(Cn1cnc2nc3c(cc2c1=O)CCCC3)NCCC1=CCCCC1	-27&-18	95	64	106&113
CCOC(=O)c1cnc2ccccc2c1Cl	-10	·	·	98
CCn1nc(C)c2c1c(=O)n(Cc1ccccc1)c(=O)n2Cc1ccccc1C	3	·	·	102

6 of the compounds above, in CSV form.
Molecule,HCMV NEC inh,Sa growth inh,Sa growth inh second temp,GIV-Gai inh
CC(C)NC(=O)N1CCCC(c2cccc(C(=O)NCCN3CCOCC3)c2)C1 (stereo unspecified),-4,·,·,110
C=CCC1c2cccc(C(=O)O)c2C(=O)N1c1ccc(F)cc1 (stereo unspecified),·,157,89,106
CCCN(CCC)CCCNC(=O)C1CCN(c2nc3cccnc3s2)CC1,-18,·,·,103
CCn1nc(C)c2c1c(=O)n(Cc1ccccc1)c(=O)n2Cc1ccccc1C,3,·,·,102
O=C(NCCCc1ccccc1)NC1CC(=O)N(c2ccc(F)cc2)C1 (stereo unspecified),-8,105,94,103
O=C(Cn1cnc2nc3c(cc2c1=O)CCCC3)NCCC1=CCCCC1,-27&-18,95,64,106&113

The results go on.
SMILES	HCMV NEC inh	Sa growth inh	Sa growth inh second temp	GIV-Gai inh
CCOC(=O)c1cc(CC)sc1NC(=O)c1sc(C)nc1C	-9	·	·	118
CCSc1ccccc1C(=O)Nc1nncs1	-9	83	68	103
O=C(COc1ccc(Cl)cc1)Nc1c(-c2ccc(F)cc2)nc2ccccn12	·	106	89	96
COc1ccc(Cl)cc1NC(=O)c1cc(S(=O)(=O)N2CCC(C)CC2)cn1C	-13	96	91	95&104
C=CCSc1nnc(NC(=O)Cc2coc3ccc(OC)cc23)s1	-12	101	89	105
O=C(Nc1ccc2c(c1)OCCO2)C1CCCN(C(=O)c2cc(-c3ccccn3)n[nH]2)C1 (stereo unspecified)	-3	·	·	100
Cc1cccc(OCc2nc(C)c(C(=O)NCC3CCCO3)s2)c1 (stereo unspecified)	-16	·	·	105
COCCn1c(=O)c2sc3ccccc3c2n(CCN2CCOCC2)c1=O	-12	98	85	101
CN(C)c1ccc(C2N=C(c3ccccc3)NO2)cc1 (stereo unspecified)	-39	126	85	·
Cc1ccc(C(C(=O)Nc2c(C)n(C)n(-c3ccccc3)c2=O)N(Cc2ccco2)C(=O)Cc2c[nH]c3ccccc23)cc1 (stereo unspecified)	-7	98	83	106
CCOC(=O)Cc1csc(NS(=O)(=O)c2cc(C)c(Cl)cc2Cl)n1	-6	126	72	99
Cc1cc(C)c(NC(=O)C(C)n2nc(C)c3sc4ccccc4c3c2=O)c(C)c1 (stereo unspecified)	-5	97	88	101
Cc1ccc(Cn2cccc2CNS(=O)(=O)c2cccc3nsnc23)cc1	-69	·	·	105
COc1ccc([N+](=O)[O-])cc1-c1ccc(/C=c2/sc3nc4ccccc4n3c2=O)o1	-13	·	·	99
CCOc1ccccc1Nc1nnc(SCC(=O)NC(C)(C#N)C2CC2)s1 (stereo unspecified)	-27	87	86	·
Cc1ccc(-n2c3c(c(=O)[nH]c2=O)C(NS(=O)(=O)c2ccc(C)cc2)(C(F)(F)F)C(=O)N3)cc1 (stereo unspecified)	-20	102	95	98
O=C(CSc1ncccn1)N/N=C/c1cccc2c1OCCO2	-26	94	92	106
CC(C)CN(CC(C)C)c1ncnc2c1cnn2-c1ccccc1	-24	70	65	100
COCCNC(=O)c1ccc2nc(Cc3ccccc3)oc2c1	·	85	88	102
Cc1cc(C)n2ncc(/C(N)=N/OC(=O)c3ccccc3F)c2n1	-45	88	84	105
CCOC(=O)Nc1ccc2c(c1)OCO2	-18	136	100	105
O=C(OCC1CCCO1)c1ccc2c(c1)N(Cc1cccc(Cl)c1)C(=O)c1ccccc1S2(=O)=O (stereo unspecified)	-21	135	95	105&97
CC(C)c1ccc(NC(=O)c2ccc(N(C)C)cc2)cc1	7	105	102	101
CCC(=O)c1ccc(OCc2cn3cc(Cl)ccc3n2)cc1	-12	71	100	·
CC(C)(C)c1ccccc1NS(C)(=O)=O	-29	102	102	101
O=C1Nc2ccc(Br)cc2C1(O)N1CCCCCC1 (stereo unspecified)	-26	·	·	102
CC(C)Cn1c(=O)c2sccc2n2c(SCc3ccccc3F)nnc12	-30	·	·	102
CN(Cc1ccccc1)C(=O)c1cc(-c2ccc3c(c2)OCO3)on1	4	106	88	98
CCCOc1ccccc1Cn1c(=O)sc2ccccc21	-21	102	80	100
CC1CN(C2CCN(CC3CC4C=CC3C4)CC2)CC(C)O1 (stereo unspecified)	-18	102	83	102

In another format: entries from further up
molecule | HCMV NEC inh | Sa growth inh | Sa growth inh second temp | GIV-Gai inh
CC1CN(C2CCN(CC3CC4C=CC3C4)CC2)CC(C)O1 (stereo unspecified) | -18 | 102 | 83 | 102
CCC(=O)c1ccc(OCc2cn3cc(Cl)ccc3n2)cc1 | -12 | 71 | 100 | ·

Next entries follow.
SMILES	HCMV NEC inh	Sa growth inh	Sa growth inh second temp	GIV-Gai inh
COc1cc(CNCCSc2nnnn2C)ccc1OCc1cccc(C)c1	-22	·	·	98
COC(=O)c1ccc(CN2CCN(CCN3C(=O)C4C5C=CC(C5)C4C3=O)CC2)cc1 (stereo unspecified)	-14	·	·	102
CCNCc1cccc(F)c1	-17	108	87	·
O=C(Nc1cccnc1)c1ccccc1-c1nc(-c2ccccc2)no1	11	·	·	100
CCOC(=O)C1CCCN(C(=O)Cn2ncc3c(C)n(Cc4ccccc4F)c(C)c3c2=O)C1 (stereo unspecified)	-1	85	86	105
Cc1ccc(S(=O)(=O)NC(=NCc2ccc(Cl)cc2)Nc2nc(C)cc(C)n2)cc1	·	78	69	100
O=C1N/C(=N/N=C/c2ccco2)SC1Cc1ccc(SC(F)F)cc1 (stereo unspecified)	-41	64	83	·
CN(Cc1ccccc1)C(=O)COC(=O)c1cc(Cl)nc(Cl)c1	-21	84	88	·
COc1ccc(NC(=O)Cc2csc(C)n2)cc1	-16	93	88	102
Nc1nc(COC(=O)C2COc3ccccc3O2)nc(Nc2ccccc2)n1 (stereo unspecified)	-2	87	96	·
Cc1nc(-c2ccc(-c3csc(-c4cnccc4C(F)(F)F)n3)cc2)no1	2	99	79	100
Cn1c(NCCCCO)nc2c1c(=O)n(Cc1ccc(Cl)cc1)c(=O)n2C	-24	85	86	108
O=C1c2ccc(-c3nc4ccc(Cl)cc4c(=O)o3)cc2C(=O)N1CC1CCCO1 (stereo unspecified)	-22	97	83	102
COc1ccc(C2CC(=O)c3cc(-c4nc(-c5cccc(Cl)c5)cs4)c(=O)[nH]c3C2)cc1 (stereo unspecified)	-5	81	93	101
COc1cccc(CNC(=O)CN2C(=O)N(c3cc(C)ccc3C)S(=O)(=O)c3ccccc32)c1OC	·	105	105	104
COCCN1CCc2nc(SCC(=O)Nc3ccc(C)c(Cl)c3)[nH]c(=O)c2C1	-8	100	91	107
CCOC(=O)c1c(Cc2ccccc2Cl)cn(C)c1C	-20	92	77	·
CNC(=O)c1ccc(Cn2c(=O)c3cc(OC)c(OC)cc3n(CC(=O)NC3CCCCC3)c2=O)cc1	6	·	·	104
NCCNC(=O)c1c(O)c2cccc3c2n(c1=O)CCC3	-3	103	67	103
Cc1[nH]n(C(N)=S)c(=O)c1N=Nc1ccc(Br)cc1	-22	93	83	105
Cc1nn(C)c2nc(OC(C)C(=O)N3CCCc4ccccc43)cc(C(F)(F)F)c12 (stereo unspecified)	-36	·	·	103
COc1cc(N=C(C)c2c(C)[nH]n(-c3nc4ccccc4s3)c2=O)cc(OC)c1	·	112	80	98
CCOc1cccc2c1Oc1nc(-c3ccccc3)nc(SCC(=O)Nc3ccc(F)cc3)c1C2	-23	113	85	105
Cc1cnc(NC(=O)CSc2nc3sc4c(c3c(=O)n2C)CCCC4)s1	-31	111	88	100
CCN1C(=O)/C(=C2\SC(=S)N(NC(=O)c3ccccc3Cl)C2=O)c2ccccc21	3	·	·	106
COc1ccc(C2CC(=O)C3=C(C2)Nc2ccccc2NC3c2ccccc2C)cc1 (stereo unspecified)	-6	·	·	97
CCOC(=O)c1c(NC(=O)c2ccccc2OCC)sc2c1CCC(CC)C2 (stereo unspecified)	-63	85	88	108
COCCNC(=O)CSc1nc2cc3c(cc2c(=O)n1CCCC(=O)NCc1ccc(OC)cc1)OCO3	·	81	82	101
CC(=O)Nc1c(C)nn(-c2ccccc2)c1N1CCC(C(=O)Nc2ccccc2F)CC1	·	83	88	106
CSc1ccc(/C=C(\C#N)C(=O)NC2CCCCC2C)cc1 (stereo unspecified)	-22	86	91	·
c1ccc(Oc2cccc3cccnc23)nc1	30	86	87	104
Cc1cccn2cc(CCNS(=O)(=O)c3ccc(Oc4ccccc4)cc3)nc12	·	119	97	100
CC1(C)OC2CS(=O)(=O)CC2O1 (stereo unspecified)	-32	84	77	102
COc1cc(OC)c(NS(=O)(=O)c2ccc3oc(=O)c4ncn(C)c4c3c2)cc1Cl	·	88	90	114
O=C(Nc1ccccc1)C1CCCN1/C=C/C(=O)C(F)(F)F (stereo unspecified)	-32	99	79	102
c1cncc(CSc2ccc(-c3cccs3)nn2)c1	-86	95	90	104
CCC(CO)NCc1ccc(-c2ccc(F)c(Cl)c2)o1 (stereo unspecified)	-18	118	77	104
CCN1C(=O)/C(=C2\SC(=S)N(NC(C)=O)C2=O)c2ccccc21	-19	88	84	·
C=C[n+]1ccn(-c2nc3ccccc3nc2[N-]S(=O)(=O)c2ccccc2)c1	-10	114	85	·
O=C(O)C1CC2CCCC(C1)C2=O (stereo unspecified)	-4	90	87	·
COc1ccc(OC)c(C2CC(c3ccc(Br)cc3)=NN2C(C)=O)c1 (stereo unspecified)	-12	·	·	101
Cc1ccc(C(N)=S)c(C)c1	0	101	88	·
CN1CCC(NC(=O)Cc2c(F)cccc2Cl)CC1	15	108	98	107
Cc1cc(C)c2nc(NCCN3CCCC3)cc(C)c2c1	9	103	85	·
Cn1c(N)c(C(=O)CSc2ncnc3nc[nH]c23)c(=O)n(C)c1=O	-5	·	·	98
CN1C(=O)Cc2cc(S(N)(=O)=O)ccc21	-5	105	96	108

Assay outcomes (PubChem)
